Screening results as filed in PubChem.
PrP 5UTR inh: suppresses PrP 5' UTR mRNA reporter expression. 0.35% of 340,000 active. inhibition, % (test concentration not listed). cell-based PrP 5' UTR mRNA reporter, plate reader;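 active means every replicate at 50% or more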;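 further: 0 = median of the neutral control wells; tested in H4 reporter cells; numbers are from one replicate; inactives centre near -14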
Sa ugtP lethal: kills S. aureus RN4220 lacking UgtP; 0.54% of 330,000 active; AID 1259309; growth inhibition, % (test concentration not listed); S. aureus RN4220 ugtP deletion, OD600 growth, 16 h; some inactives read as strong as hits;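 active means z-score under -3 and OD600 up to 0.15 on both plates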;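 further: plate controls were untreated wells for no effect and antibiotic for full effect; wells of about 80 µL received 100 nL stock; the first replicate is given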
Mtb hypoxia rep: Mtb hypoxia fluorescent reporter inhibition; M. tuberculosis hypoxia-regulated fluorescent reporter, fluorescence; fluorescence inhibition, % (test concentration not listed); 0.1% of 300,000 active; AID 1159583;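 active means 35 to 45% if threefold the growth effect, above 45% if 1.5-fold the growth effect; inactive means the rest, general growth blockers included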;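 further: wells of about 50 µL received 100 nL stock; 0% = vehicle wells and 100% = reference inhibitor wells; whole bacteria with a GFP reporter of the hypoxia response; strong numbers were not always called active; many hits fall short of the cut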
Autofluor counter: counter-screen for toxin protease inhibitors: compound fluorescence; compound autofluorescence counterscreen, microsphere flow cytometry; stronger effect = higher value; fluorescence intensity (concentration not given with the values); 3.1% of 360,000 active; AID 624483;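 active means at least 3 SD above the mean of all compounds, about 16000 in these data; inconclusive means too few beads counted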;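 further: 100 nL of 1 mM stock went into each well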
Sa RN4220 lethal: S. aureus RN4220 growth inhibition; inhibition, % (concentration not given with the values); OD600, 16 h; 0.33% of 330,000 active;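 active means z-score of -3 or lower and OD600 up to 0.18 on both plates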;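 further: plate controls were untreated cells for no effect and reference antibiotic for full effect; stock transfer was 100 nL into about 80 µL; one replicate is shown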
BJeLR lethal: kills HRASV12-expressing BJeLR cells; 0.17% of 300,000 active; BJeLR (HRASV12) viability, CellTiter-Glo ATP luminescence, 48 h; reference of the scale not given here; inhibition, % (no concentration beside the values); AID 1554;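 active means replicate mean above 50%; inconclusive means above 50% but judged a plate artefact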;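 further: 50 nL library stock added to about 25 µL; numbers are from one replicate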
Mtb hypoxia rep growth: also measured in Mtb hypoxia rep; calls as there; growth inhibition, %; measured here: M. tuberculosis growth (absorbance);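 0% = vehicle and 100% = reference antibiotic; read after six days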
An asterisk follows results filed as active; ? = inconclusive; nt = no result given.

1. CCOc1cccc(C(=O)Nc2ccc(N3CCN(S(C)(=O)=O)CC3)cc2)c1
2. Cn1ncc(=S)[nH]c1=S
3. COc1ccc(Oc2cc(Cl)nc(N)n2)cc1
4. COc1ccc(C2CC(C(F)(F)F)n3nc(C(=O)N(C)Cc4cn(C)nc4C)c(Cl)c3N2)cc1 (configuration not stated)
5. O=C(OCc1nnc(-c2ccccc2)o1)c1ccccc1
6. COc1ccc(C2CC(=O)Nc3sc(=N)c4c(N)c(C#N)c(N)nc4c32)cc1OC (configuration not stated)
7. COC(CNC(=O)c1ccc(CS(=O)(=O)c2c(Cl)cccc2Cl)o1)OC
8. Cc1cc(OCC(=O)N2CCc3ccccc3C2)c(C)cc1Br

Assay by compound,1,2,3,4,5,6,7,8
BJeLR lethal,-11,nt,2,-5,-7,-12,6,8
PrP 5UTR inh,-15,-21,-19,7,-12,1,-7,-10
Sa ugtP lethal,-5,1,5,-2,4,6,8,nt
Mtb hypoxia rep,nt,7,-15,3,-2,-1,3,nt
Mtb hypoxia rep growth,nt,14,-4,5,12,-11,7,nt
Autofluor counter,2861,3848,2585,?,4407,3272,3292,4066
Sa RN4220 lethal,-0.3,9.1,-1.8,-15,7.5,0.2,-1.5,nt

9. CC(=O)c1cc(NC(=O)c2cccc(C(F)(F)F)c2)c(=O)oc1/C=C/N(C)C
10. Cc1ccccc1OCC(=O)NNC(=S)NC(=O)c1ccco1
11. Cc1ccc(NC(=O)COC(=O)/C=C/c2ccc(Br)o2)cc1S(=O)(=O)N(C)C
12. COCCN(C(=O)COC(=O)Cc1ccc(Cl)cc1Cl)c1c(N)n(Cc2ccccc2)c(=O)[nH]c1=O
13. COC(=O)C1=C(C)NC(=O)NC1c1ccc([N+](=O)[O-])o1 (configuration not stated)
14. CCOc1ccc(-n2c(C)nnc2SCC(=O)N(CC)CC)cc1
15. COc1ccc(-c2nnc(SCc3ccc(C(=O)O)cc3)n2N)cc1
16. CCOc1ccc(OCCn2c(S(=O)(=O)O)nc3c(N)ncnc32)cc1

Assay by compound,9,10,11,12,13,14,15,16
BJeLR lethal,6,5,-4,-5,-8,0,4,3
PrP 5UTR inh,-4,-11,-22,-5,-18,-5,nt,-16
Sa ugtP lethal,-8,11,12,-2,13,-5,8,2
Mtb hypoxia rep,nt,-5,3,9,-3,3,0,-2
Mtb hypoxia rep growth,nt,11,10,-1,10,7,2,-1
Autofluor counter,23755*,11244,4926,5027,2168,19915*,4448,4168
Sa RN4220 lethal,3.4,54,0.3,5.8,10,-0.2,1.6,1.5

17. Cc1cnc(C(=O)NC2CCSc3ccccc32)cn1 (configuration not stated)
18. CC(OC(=O)Cc1n[nH]c(=O)c2ccccc12)C(=O)Nc1ccc(F)cc1Cl (configuration not stated)
19. COc1cc2c(c(NC(C)=O)c1)N(C(C)=O)CCC2
20. CCN1c2ccc(S(=O)(=O)N3CCOCC3)cc2N(Cc2ccc(OC)cc2)C1C (configuration not stated)
21. COc1cccc(CNC(=O)C2CCN(Cc3cnn(-c4ccccc4)c3-n3cccc3)CC2)c1
22. Cc1ccc(S(=O)(=O)N2CCC(=O)N(CCOCc3ccc(C(F)(F)F)cc3)CC2)cc1
23. COc1ccc(C(=O)Nc2ccc(CN3CCOCC3)cc2)cc1
24. Cc1ccc(Cl)cc1NC(=O)C1CCCN(S(C)(=O)=O)C1 (configuration not stated)

Assay by compound,17,18,19,20,21,22,23,24
BJeLR lethal,1,-10,nt,2,-13,8,-2,4
PrP 5UTR inh,-10,-10,-2,-27,-11,-11,-24,-23
Sa ugtP lethal,-3,6,4,-3,7,-21,9,2
Mtb hypoxia rep,14,5,1,-16,4,-1,nt,0
Mtb hypoxia rep growth,8,2,1,2,4,6,nt,-4
Autofluor counter,5955,5051,4014,9737,5706,3737,4549,4249
Sa RN4220 lethal,1.4,4.0,3.1,0.1,12,0.8,2.1,2.0

25. Cc1onc(-c2ccccc2)c1NC(=O)Nc1c(-c2ccccc2)noc1C
26. O=C(COc1ccc(Cl)cc1Cl)NC(=O)N1CCOCC1
27. O=C(NCc1ccc2c(c1)OCO2)C1CCCN1C(=O)Nc1ccccc1 (configuration not stated)
28. CC(=O)Oc1ccc2oc3c(c2c1)C(=O)CCC3
29. CCOC(=O)CCCNC(=O)CCNC(=O)c1ccc(OCC(C)C)cc1
30. CCCCCCCCNC(=O)CCNC(=O)c1ccc(C(C)(C)C)cc1
31. COc1ccc(N2C(=O)C(CC(=O)Nc3ccccc3)N(CCc3ccc(OC)c(OC)c3)C2=O)cc1 (configuration not stated)
32. CC(OC(=O)c1ccc2c(c1)OCO2)C(=O)NC1CCCCC1C (configuration not stated)

Assay by compound,25,26,27,28,29,30,31,32
BJeLR lethal,-9,-10,-1,6,7,-5,-7,nt
PrP 5UTR inh,-11,-13,-20,-30,-9,-6,-22,-16
Sa ugtP lethal,0,2,-1,0,11,-21,5,8
Mtb hypoxia rep,-23,1,10,4,10,5,2,0
Mtb hypoxia rep growth,-19,-2,6,6,10,1,3,-3
Autofluor counter,5134,16969*,12630,23365*,4214,16679*,2601,4472
Sa RN4220 lethal,7.9,3.9,2.9,5.4,3.8,2.0,-0.4,6.7

33. CCn1c(SCC(=O)NN=C/C(C)=C/c2ccco2)nnc1-c1ccccc1
34. Cn1cccc1CC(=O)N/N=C/c1cc([N+](=O)[O-])ccc1Cl
35. CCOC(=O)c1sc(NC(=O)CSc2nnc(-c3ccco3)o2)c(C(=O)OCC)c1C
36. O=C(O)c1ccc(CNCc2ccccc2F)cc1
37. CCOCCCNC(=O)c1ccccc1Br
38. CCN(CC)S(=O)(=O)c1ccc(OC)c(NC(=O)CSc2ccccc2)c1
39. CC(=O)Nc1ccccc1N(CC(O)Cn1c2ccccc2c2ccccc21)S(=O)(=O)c1ccc(C)cc1 (configuration not stated)
40. Cc1nc2cc(NC(=O)c3ccco3)ccc2n1C

Assay by compound,33,34,35,36,37,38,39,40
BJeLR lethal,nt,3,-6,-2,4,-4,-9,-1
PrP 5UTR inh,nt,-36,-30,-10,-26,-18,-36,-57
Sa ugtP lethal,3,nt,-10,6,1,4,-27,5
Mtb hypoxia rep,4,nt,nt,6,9,6,12,-1
Mtb hypoxia rep growth,19,nt,nt,-6,9,2,3,6
Autofluor counter,nt,4048,4830,4685,9463,3466,2138,5517
Sa RN4220 lethal,2.1,nt,2.0,4.1,3.3,-1.9,4.1,3.1

41. O=C(Nc1cccc2ncccc12)C12CC3CC(CC(C3)C1)C2
42. Cc1cc(NC(=O)C(=O)c2cn(C)c3ccccc23)no1
43. COc1cc(-c2nnc(SCC(=O)/C(C#N)=C(\C)N)o2)cc(OC)c1OC
44. CC(Cc1ccccc1)=NNc1ccc([N+](=O)[O-])cc1[N+](=O)[O-]
45. O=C(CSC1CC(=O)N(c2ccc(C(=O)O)cc2)C1=O)Nc1ccc2ccccc2c1 (configuration not stated)
46. COc1ccccc1OCC(=O)Nc1cc(C(F)(F)F)ccc1-n1cncn1
47. O=S(=O)(c1ccc2c(c1)OCCO2)N1CCC(c2nc3ccccc3[nH]2)CC1
48. CCNC(=O)C12CCC(C)(c3nc4cc(C)c(C)cc4nc31)C2(C)C (configuration not stated)

Assay by compound,41,42,43,44,45,46,47,48
BJeLR lethal,6,1,10,nt,1,3,3,5
PrP 5UTR inh,-16,-39,-37,-10,-3,-74,-7,-12
Sa ugtP lethal,-9,11,-5,4,12,0,2,2
Mtb hypoxia rep,14,8,4,3,6,11,3,7
Mtb hypoxia rep growth,9,8,7,10,-1,8,-1,2
Autofluor counter,4019,3267,10032,3609,4169,5202,22441*,4296
Sa RN4220 lethal,5.6,4.8,3.9,9.5,-1.4,2.1,3.2,0.2

49. NC(=O)Cc1ccc(C(=O)CSc2nnc(-c3ccncc3)n2C2CC2)s1
50. CCOc1nc(-c2ccccc2)ccc1-c1noc(-c2cccs2)n1
51. c1ccc(-c2nnc3n2-c2ccccc2SC3)cc1
52. CC(=O)c1ccc(NC(=O)Cn2c(=O)oc3ccccc32)cc1
53. COc1ccc2sc(-c3ccc(S(C)(=O)=O)cc3)c(C(=O)NCCCN3CCCC3=O)c2c1
54. Fc1ccc(Br)cc1/C=N/N1CCN(c2ccccc2)CC1
55. Cc1c(N/C(=N/S(=O)(=O)c2ccccc2)c2ccc(Cl)cc2)c(=O)n(-c2ccccc2)n1C
56. O=Cc1ccc(Oc2ccc(F)cc2)nc1

Assay by compound,49,50,51,52,53,54,55,56
BJeLR lethal,nt,1,3,-3,nt,-9,1,-6
PrP 5UTR inh,-13,-26,-13,-12,-4,-12,-31,-13
Sa ugtP lethal,-3,-6,11,0,1,nt,3,1
Mtb hypoxia rep,2,3,6,-5,0,nt,3,6
Mtb hypoxia rep growth,2,4,-2,-1,20,nt,16,6
Autofluor counter,3859,20998*,6311,3045,3701,4002,1976,2620
Sa RN4220 lethal,2.7,0.6,4.2,2.6,2.6,nt,6.0,4.0

57. Cc1ccc(CNC(=O)Cn2c([N+](=O)[O-])cnc2C)cc1
58. CC(NC(=O)C(c1ccccc1)c1ccccc1)c1ccc(S(N)(=O)=O)cc1 (configuration not stated)
59. O=C(CN1C(=O)CSC1=O)N1CCCCC1
60. CS(=O)(=O)N1CCN(c2ccc(NC(=O)c3ccccc3)cc2)CC1
61. COc1cc(/C=N/NC(=O)CCC(=O)Nc2ccc(Br)cc2)ccc1O
62. COc1ccc(OCC(=O)NC2CCSc3ccccc32)cc1 (configuration not stated)
63. O=C(CN1CCC(C(=O)c2ccc(F)cc2)CC1)NCc1ccccc1F
64. CCCON=C1C(=O)N(c2ccccc2)c2ccccc21

Assay by compound,57,58,59,60,61,62,63,64
BJeLR lethal,0,-11,12,7,-6,nt,4,nt
PrP 5UTR inh,-1,-24,-8,-69,-9,-3,-24,nt
Sa ugtP lethal,7,8,-2,5,nt,14,16,17
Mtb hypoxia rep,4,8,-3,2,nt,9,-4,-3
Mtb hypoxia rep growth,11,13,2,4,nt,11,-3,17
Autofluor counter,4187,5290,3281,4648,3532,3522,3816,nt
Sa RN4220 lethal,2.6,2.8,8.5,6.1,nt,12,-0.9,-2.6

65. CCOC(=O)/C(C#N)=N/Nc1ccccc1C(=O)O
66. C[C@@H](C(=O)NCCc1c[nH]c2ccccc12)[C@H]1C[C@]1(C)[C@H](NC(=O)OCc1ccccc1)c1ccccc1
67. CCN(CC)C(=O)c1ccc(-c2nnc(Nc3ccc(O)cc3)c3ccccc23)cc1
68. CN(C(=O)OCc1ccccc1)C(CC(N)=O)C(=O)O (configuration not stated)
69. Cc1c(C(=O)N2CCC(C)CC2)sc2ncnc(N3CCN(c4ccccc4)CC3)c12
70. COc1ccc(CCN2CC(C(=O)NCCc3cccc(F)c3)CCC2=O)cc1 (configuration not stated)
71. CCCCCCCC(=O)NC(Nc1ccccc1OC)C(Cl)(Cl)Cl (configuration not stated)
72. CCOc1cc(C#N)ccc1OCC(=O)N1CCN(C(=O)c2cccs2)CC1
73. CCOC(=O)c1ccc(NS(=O)C23CC4CC(CC(C4)C2)C3)cc1 (configuration not stated)
74. COC(=O)[C@@]1(Cc2ccc(OC)cc2)C2c3cc(C(=O)N4CCCC4)n(CCn4cc([N+](=O)[O-])nc4C)c3CC2CN1C(=O)c1ccccc1 (some centres not stated)
75. COc1ccc(N2CCc3c(C)nc(SC)nc32)cc1

Assay by compound,65,66,67,68,69,70,71,72,73,74,75
BJeLR lethal,-2,-2,-9,-3,nt,4,14,nt,3,nt,-1
PrP 5UTR inh,-14,-53,-25,-10,nt,-17,-9,nt,-18,nt,1
Sa ugtP lethal,nt,nt,-1,5,-3,6,7,8,13,-2,-6
Mtb hypoxia rep,nt,nt,9,0,7,-5,20,11,4,1,-10
Mtb hypoxia rep growth,nt,nt,-2,3,3,-4,7,9,2,-4,-6
Autofluor counter,4427,3546,4659,13009,10576,3994,6672,5390,7464,nt,5014
Sa RN4220 lethal,nt,nt,2.4,2.1,5.4,3.9,2.7,6.3,5.4,7.0,0.7

Random draw from the library; any-hit rate near 4%.
